Assay outcomes deposited in PubChem by several laboratories.
ugtP null kill: growth inhibition of ugtP-null S. aureus, primary screen, RN4220 ugtP deletion, OD600; growth inhibition, % (no concentration beside the values); 16 h; some inactives read as strong as hits; 330,000 compounds, 0.54% hits;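 active means z-score under -3 and OD600 up to 0.15 on both plates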;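 further: plate controls were untreated wells for no effect and antibiotic for full effect; wells of about 80 µL received 100 nL stock; the first replicate is given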
PrP 5UTR inh: inhibition of PrP 5' UTR reporter expression; inhibition, % (concentration not given with the values); 340,000 compounds, 0.35% hits; cell-based PrP 5' UTR mRNA reporter, plate reader;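 active means every replicate at 50% or more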;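 further: 0 = median of the neutral control wells; tested in H4 reporter cells; numbers are from one replicate; inactives centre near -14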
Mtb hypoxia inh: PubChem AID 1159583 | fluorescence inhibition, % (no concentration beside the values) | 300,000 compounds, 0.1% hits | M. tuberculosis hypoxia-regulated fluorescent reporter, fluorescence;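 active means 35 to 45% if threefold the growth effect, above 45% if 1.5-fold the growth effect; inactive means the rest, general growth blockers included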;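 further: wells of about 50 µL received 100 nL stock; 0% = vehicle wells and 100% = reference inhibitor wells; whole bacteria with a GFP reporter of the hypoxia response; strong numbers were not always called active; many hits fall short of the cut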
Bead autofluor: flagged as autofluorescent in microsphere protease counterscreen; 360,000 compounds, 3.1% hits; compound autofluorescence counterscreen, microsphere flow cytometry; active compounds read high; AID 624483; fluorescence intensity (no concentration beside the values);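 active means at least 3 SD above the mean of all compounds, about 16000 in these data; inconclusive means too few beads counted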;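 further: 100 nL of 1 mM stock went into each well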
BJeLR lethal: MLPCN primary cell-based screen for lethality selective to Ras in HRASV12 cells. BJeLR (HRASV12) viability, CellTiter-Glo ATP luminescence, 48 h; reference of the scale not given here. inhibition, % (test concentration not listed). 300,000 compounds, 0.17% hits. AID 1554, 2009;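 active means replicate mean above 50%; inconclusive means above 50% but judged a plate artefact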;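 further: 50 nL library stock added to about 25 µL; numbers are from one replicate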
Sa RN4220 lethal: growth inhibition of S. aureus RN4220, primary screen, OD600; inhibition, % (concentration not given with the values); 16 h; 330,000 compounds, 0.33% hits;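 active means z-score of -3 or lower and OD600 up to 0.18 on both plates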;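 further: plate controls were untreated cells for no effect and reference antibiotic for full effect; stock transfer was 100 nL into about 80 µL; one replicate is shown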
Mtb hypoxia inh growth: second read-out of Mtb hypoxia inh, no call of its own (marks repeat the call); growth inhibition, %; measured here: M. tuberculosis growth (absorbance);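 0% = vehicle and 100% = reference antibiotic; read after six days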
* hit, by the source's call; ? = inconclusive; . = no result given.

Preview, 2 compounds:
molecule	ugtP null kill	PrP 5UTR inh	Mtb hypoxia inh	Mtb hypoxia inh growth	Bead autofluor	BJeLR lethal	Sa RN4220 lethal
Cc1nnc(SCC(=O)NC(C)(C)C)n1C1CCCCC1	-3	1	4	2	2608	0	4.3
Nc1nc(-c2ccco2)nn1C(=O)c1ccc(F)cc1	2	-1	13	6	4473	-6	3.5

The whole of this part, previewed entries included:
molecule	ugtP null kill	PrP 5UTR inh	Mtb hypoxia inh	Mtb hypoxia inh growth	Bead autofluor	BJeLR lethal	Sa RN4220 lethal
Cc1nnc(SCC(=O)NC(C)(C)C)n1C1CCCCC1	-3	1	4	2	2608	0	4.3
Nc1nc(-c2ccco2)nn1C(=O)c1ccc(F)cc1	2	-1	13	6	4473	-6	3.5
COC(=O)[C@@H]1C[C@@]2(O)[C@H](O)[C@H](O)[C@H](O)C[C@H]2N1Cc1cccc2ccccc12	.	-4	.	.	3679	4	.
Cc1ccc(-n2nc3c(=O)n(CC(=O)NC4CCCCC4)nc(C)c3c2C)cc1	11	-17	2	-3	5285	-14	6.5
N#C/C(=C(/O)c1ccc([N+](=O)[O-])cc1)c1nc2ccccc2[nH]1	-12	.	-12	-7	6045	10	-2.0
CC(=NN=c1scc(C)n1Cc1ccco1)c1cccc([N+](=O)[O-])c1	67	.	5	5	.	.	22
COc1ccc(NC(=O)Cn2nc(C(F)(F)F)c3c2CCCC3)c(OC)c1	-11	-43	7	9	21156*	-1	9.0
CNS(=O)(=O)c1ccc(N2CCCC2)c([N+](=O)[O-])c1	4	-22	12	13	4148	20	2.4
COC(=O)c1cc(CNC(=O)c2sccc2-c2ccccc2)ccc1OC	9	-3	0	2	5625	13	4.9
O=C(Nc1nc(-c2ccco2)c(-c2ccco2)s1)c1c(F)cccc1Cl	24	-9	4	0	6356	.	-6.0
COc1cccc(-n2c(Cc3cc(=O)[nH]c(=O)[nH]3)nnc2SCc2cccnc2)c1	.	-34	.	.	5775	1	.
CCC(C)(C)NC(=O)COc1ccc(C(=O)c2ccccc2)cc1	5	-19	-14	6	5211	-22	-1.3
CCCSC1=N/C(=C\C=C\c2ccco2)C(=O)S1	-4	-10	0	10	2568	-9	3.6
NCCCCCc1nnc(SCC(=O)Nc2cccc(Cl)c2)o1	4	.	5	2	8835	-2	2.3
COc1ccc(CC(=O)N(Cc2ccccc2)c2ccccc2)cc1S(=O)(=O)N1CCOCC1	10	-14	-2	-8	5315	-2	2.5
COc1ccc(CC(NC(C)=O)C(=O)NC2CCN(c3c4c(nc5ncnn35)CCC4)CC2)cc1OC (stereo unspecified)	12	.	1	7	.	.	2.7
CCc1ccc(CN(C)CC(=O)Nc2ccccc2[N+](=O)[O-])cc1	14	11	3	4	2526	1	8.9
CCC1CCCCN1C(=O)NC(CCSC)C(=O)OC (stereo unspecified)	8	.	11	-2	.	.	7.8
Cc1nc(C)n(C(C)CNC(=O)c2cccc(Br)c2)n1 (stereo unspecified)	5	-19	15	5	3687	11	4.7
Cc1cccc(COCCN2CCN(S(=O)(=O)c3ccccc3)CCC2=O)c1	-1	-11	3	0	3922	-8	4.8
S=C(Nc1ccc(Oc2ccccc2)cc1)NC1CCCC1	-4	-19	7	1	2216	-1	-0.3
CNC(=O)C1CC(=O)N(CCc2ccc(OC)cc2)C(=Nc2ccc(OC)cc2)S1 (stereo unspecified)	-13	-11	15	8	4260	8	3.5
O=C(Nc1ccc(NC(=O)c2ccco2)cc1)c1ccc2c(c1)OCO2	0	-7	1	9	3344	10	8.2
O=C(COc1ccc2ccc(=O)oc2c1)NC1CCCCC1	9	7	12	-2	4204	.	1.9
CN(C)S(=O)(=O)c1cccc(C(=O)NCc2ccco2)c1	0	-25	7	9	9243	-1	3.7
CC1CCCN(S(=O)(=O)c2ccc(S(=O)(=O)N3CCCN(Cc4ccccc4)C3)cc2)C1 (stereo unspecified)	-1	-16	5	8	10633	6	2.7
CCN1CCN(C2CC(=O)NC2=O)CC1 (stereo unspecified)	3	.	2	-4	.	-10	4.9
Cc1ccc(S(=O)(=O)NNC(=O)Nc2ccc([N+](=O)[O-])cc2)c(C)c1	-5	1	5	-1	6066	6	2.8
COc1ccc(CCNC(=O)COc2ccc(N(C)S(=O)(=O)c3ccc(C)cc3)cc2)cc1OC	12	-9	4	-3	3687	1	0.4
COc1cc(OC)c(C(=O)OCN2C(=O)c3ccccc3C2=O)cc1OC	3	-16	5	4	4142	8	-1.5

Reprinted from the part before: 2 entries, then new ones.
molecule	ugtP null kill	PrP 5UTR inh	Mtb hypoxia inh	Mtb hypoxia inh growth	Bead autofluor	BJeLR lethal	Sa RN4220 lethal
COc1ccc(CCNC(=O)COc2ccc(N(C)S(=O)(=O)c3ccc(C)cc3)cc2)cc1OC	12	-9	4	-3	3687	1	0.4
COc1cc(OC)c(C(=O)OCN2C(=O)c3ccccc3C2=O)cc1OC	3	-16	5	4	4142	8	-1.5
CCCOc1ccc(C=NNC(=O)C2CC2)c(OCCC)c1	-4	.	6	10	.	.	-0.7
C=C(C)COC(=O)C1CC2OC2CC1C(=O)OCC(=C)C (stereo unspecified)	12	-9	7	2	3715	.	7.5
COCCCNS(=O)(=O)c1ccc(Cl)c(C(F)(F)F)c1	1	-21	1	2	4335	-1	4.2
CC(=O)c1ccccc1NS(=O)(=O)c1c(C)nn(-c2ccccc2)c1C	0	-9	1	6	11004	-19	8.2
COc1cc(OC)cc(C(=O)NCCNC(=O)c2ccccn2)c1	-1	0	-5	2	5922	-8	4.4
COc1ccc(C2=NS(=O)(=O)N(C)C(C(=O)NCc3ccc4c(c3)OCO4)=C2)cc1	-8	-4	1	-2	5360	-1	5.0
O=[N+]([O-])c1cccc(NN=Nc2ccccc2)c1	-9	-40	4	-1	2954	0	9.3
Cc1ccc(C)c(NC(=O)CSc2ccc(S(=O)(=O)N3CCCC3)cn2)c1	2	-7	2	12	8583	.	1.3
CCOCCCNC(=S)NCCNc1nc2c(C)cccc2cc1C#N	-11	-41	-3	3	7251	-5	2.4
O=C(Nc1cc(S(=O)(=O)N2CCOCC2)ccc1N1CCCC1)c1ccc(Cl)cc1	1	-14	1	-2	4284	.	2.8
Cc1ccccc1N1CCN(S(=O)(=O)c2nnc(NC(=O)c3ccco3)s2)CC1	2	-9	3	1	3686	8	18
Cc1nn(C)c(C(=O)NN=Cc2ccc(C(F)(F)F)cc2)c1[N+](=O)[O-]	-4	.	-2	3	.	.	0.7
CCCCN1C[C@H](Cc2ccccc2)[C@@H](CC(=O)NCc2ccc(OC)cc2)C1=O	.	-15	.	.	2794	2	.
CC(C)CN(C1CCS(=O)(=O)C1)S(=O)(=O)c1ccc2ccccc2c1 (stereo unspecified)	2	-5	-5	-6	6863	0	4.3
O=C(COC(=O)c1cccc(Cl)c1)Nc1cc(Cl)ccc1Oc1ccccc1	0	-7	-14	-10	2417	4	3.6
CCC(CC)NC(=O)CN1CCN(S(=O)(=O)c2cccs2)CC1	7	-7	9	-6	4942	.	2.4
Clc1cccc(-c2ccc(C=Nc3ccc(N4CCOCC4)cc3)o2)c1	4	-14	4	-1	8303	-8	3.8
Cn1c(SCC(=O)c2ccccc2)ncc(C(=O)Nc2ccccc2)c1=O	8	-24	0	2	?	10	2.5
CCOc1cc(C=C(C#N)C#N)ccc1Oc1ccc([N+](=O)[O-])cn1	11	-20	-1	13	4121	5	3.8
CCc1ccc(/C=C2/SC(=S)N(CC(=O)Nc3nc4ccccc4s3)C2=O)cc1	.	-20	.	.	3020	-3	.
CC(C)OC(=O)CCC1(C(=O)O)CCC(=O)NC1 (stereo unspecified)	8	-15	4	13	10466	-10	4.6
NC(=S)NN=Cc1c2ccccc2cc2ccccc12	12	.	6	-2	.	.	28
Nc1nc(N2CCN(C(=O)c3ccco3)CC2)nc2ccc(Br)cc12	1	-84	8	8	3999	0	4.8
COP(=O)(OC)C(NC(=O)c1ccc(C)cc1)C(Cl)(Cl)Cl (stereo unspecified)	8	-29	15	9	4323	4	3.1
COc1ccc(CCN(C)Cc2c(O)ccc3cc(Br)ccc23)cc1OC	10	-18	3	1	3417	6	-1.5
O=C(CNCC1CCCO1)Nc1ccc(N2CCCCCC2)cc1 (stereo unspecified)	0	.	-6	4	10516	-1	3.1
COc1cc(/C=C2\CC/C(=C\c3ccc(OCCO)c(OC)c3)C2=O)ccc1OCCO	4	-11	-3	5	2041	-2	6.7
Cc1nc2ccc(OC(=O)c3ccccc3)cc2s1	11	-13	7	-2	4312	11	2.3
CC(C)NC(=O)c1ccc(-c2cccc(C(F)(F)F)c2)o1	-2	-5	7	12	3254	-6	1.0
CC(O)CNc1nc(Cl)c(C#N)s1 (stereo unspecified)	-1	-19	3	13	2029	4	3.3

2 compounds picked at random from those above:
molecule	ugtP null kill	PrP 5UTR inh	Mtb hypoxia inh	Mtb hypoxia inh growth	Bead autofluor	BJeLR lethal	Sa RN4220 lethal
C=C(C)COC(=O)C1CC2OC2CC1C(=O)OCC(=C)C (stereo unspecified)	12	-9	7	2	3715	.	7.5
CC(=O)c1ccccc1NS(=O)(=O)c1c(C)nn(-c2ccccc2)c1C	0	-9	1	6	11004	-19	8.2

An excerpt from above in order of length of the SMILES, smallest number first:
molecule	ugtP null kill	PrP 5UTR inh	Mtb hypoxia inh	Mtb hypoxia inh growth	Bead autofluor	BJeLR lethal	Sa RN4220 lethal
Clc1cccc(-c2ccc(C=Nc3ccc(N4CCOCC4)cc3)o2)c1	4	-14	4	-1	8303	-8	3.8
O=C(COC(=O)c1cccc(Cl)c1)Nc1cc(Cl)ccc1Oc1ccccc1	0	-7	-14	-10	2417	4	3.6
Cc1ccccc1N1CCN(S(=O)(=O)c2nnc(NC(=O)c3ccco3)s2)CC1	2	-9	3	1	3686	8	18

New compounds follow
molecule	ugtP null kill	PrP 5UTR inh	Mtb hypoxia inh	Mtb hypoxia inh growth	Bead autofluor	BJeLR lethal	Sa RN4220 lethal
CC(=O)Nc1ccc(NC(=O)c2ccc(NS(=O)(=O)c3cc(C(C)(C)C)cc(C)c3C)cc2)cc1	-2	-16	7	1	2027	0	11
Cc1c(C)c2c(OCC(=O)Nc3cccnc3)cc3c(c2oc1=O)CCC(C)(C)O3	-8	-22	.	.	6267	3	4.2
COC(=O)c1cc2c(C)nn(C)c2s1	0	-17	10	-1	5565	10	2.9
CN1CCN(c2nc3c(c(=O)[nH]c(=O)n3C)n2Cc2ccc([N+](=O)[O-])cc2)CC1	2	-7	-1	2	3713	1	3.7
Cc1cn(S(=O)(=O)c2ccccc2[N+](=O)[O-])cn1	5	-3	12	-1	3969	-2	8.3
CCS(=O)(=O)c1ncc(Cl)c(C(=O)Nc2ccc(S(=O)(=O)N3CCCC(C)C3)cc2)n1 (stereo unspecified)	.	-2	.	.	8461	4	.
Cc1cccc(N(C)S(=O)(=O)c2ccc3c(c2)CCC(=O)N3)c1	-4	-14	-2	9	11005	0	7.0
Cc1cc(C)c2c(C)c(C(=O)NCc3ccncc3)oc2c1	-12	-11	2	11	10450	6	11
CCn1c2c(c3cc(Br)ccc31)CCCC2=NO	66	.	4	2	.	.	-3.5
COc1ccc(-n2ncc3c(N4CCC(C(N)=O)CC4)ncnc32)cc1	-4	-44	-2	11	10414	0	2.7
O=[N+]([O-])c1ccc(N2CCN(S(=O)(=O)c3ccc(Cl)cc3)CC2)cc1NCc1cccnc1	7	-42	6	3	3600	2	3.3
C/C(=N\Oc1cccc(F)n1)c1ccc(Cl)cc1Cl	.	-30	.	.	2894	-6	.
O=C(CCS(=O)(=O)Cc1ccccc1F)NCCCN1CCCCC1	-5	-7	7	11	.	0	-8.4
Fc1ccc(-n2nnc(-c3ccccc3Cl)n2)cc1	13	-24	-2	-3	3898	-5	4.1
COc1cc(C=c2sc3nc(=O)c(-c4ccccc4)nn3c2=O)ccc1OCCC(C)C	3	.	0	-1	.	.	3.8
